High-throughput results as filed in PubChem BioAssay.
RN4220 kill = S. aureus RN4220 growth inhibition | inhibition, % (test concentration not listed) | hit rate 0.33% among 330,000 | OD600, 16 h | AID 1259311;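 active means z-score of -3 or lower and OD600 up to 0.18 on both plates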;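 further: plate controls were untreated cells for no effect and reference antibiotic for full effect; stock transfer was 100 nL into about 80 µL; one replicate is shown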
Bead autofluor = counter-screen for toxin protease inhibitors: compound fluorescence; compound autofluorescence counterscreen, microsphere flow cytometry; active compounds read high; fluorescence intensity (no concentration beside the values); hit rate 3.1% among 360,000; AID 624483;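 active means at least 3 SD above the mean of all compounds, about 16000 in these data; inconclusive means too few beads counted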;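 further: 100 nL of 1 mM stock went into each well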
BJeLR viability = BJeLR cell viability loss; inhibition, % (no concentration beside the values); BJeLR (HRASV12) viability, CellTiter-Glo ATP luminescence, 48 h; reference of the scale not given here; hit rate 0.17% among 300,000;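 active means replicate mean above 50%; inconclusive means above 50% but judged a plate artefact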;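 further: 50 nL library stock added to about 25 µL; numbers are from one replicate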
Mtb hypoxia rep = reduces hypoxia-regulated biosensor signal in M. tuberculosis; fluorescence inhibition, % (no concentration beside the values); hit rate 0.1% among 300,000; M. tuberculosis hypoxia-regulated fluorescent reporter, fluorescence; AID 1159583;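 active means 35 to 45% if threefold the growth effect, above 45% if 1.5-fold the growth effect; inactive means the rest, general growth blockers included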;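 further: wells of about 50 µL received 100 nL stock; 0% = vehicle wells and 100% = reference inhibitor wells; whole bacteria with a GFP reporter of the hypoxia response; strong numbers were not always called active; many hits fall short of the cut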
Sa ugtP lethal = kills S. aureus RN4220 lacking UgtP; S. aureus RN4220 ugtP deletion, OD600 growth, 16 h; some inactives read as strong as hits; growth inhibition, % (no concentration beside the values); hit rate 0.54% among 330,000; AID 1259309;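 active means z-score under -3 and OD600 up to 0.15 on both plates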;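 further: plate controls were untreated wells for no effect and antibiotic for full effect; wells of about 80 µL received 100 nL stock; the first replicate is given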
PrP 5UTR inh = suppresses PrP 5' UTR mRNA reporter expression. cell-based PrP 5' UTR mRNA reporter, plate reader. inhibition, % (test concentration not listed). hit rate 0.35% among 340,000;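 active means every replicate at 50% or more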;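 further: 0 = median of the neutral control wells; tested in H4 reporter cells; numbers are from one replicate; inactives centre near -14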
Mtb hypoxia rep growth = recorded beside Mtb hypoxia rep, whose call it bears; growth inhibition, %; measured here: M. tuberculosis growth (absorbance);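 0% = vehicle and 100% = reference antibiotic; read after six days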
Numbers without * were called inactive; ? = inconclusive; . = no result given.

Short keys: A = RN4220 kill; B = Bead autofluor; C = BJeLR viability; D = Mtb hypoxia rep; E = Mtb hypoxia rep growth; F = Sa ugtP lethal; G = PrP 5UTR inh
> CCOc1ccccc1N1CCN(CC(=O)N(C2CCCC2)C2CCS(=O)(=O)C2)CC1 (stereo not given)
  A: -3.0; B: 4125; C: .; D: -10; E: -8; F: -5; G: -15
> Cc1ccc(C)c(-c2ccc(=O)n(Cc3cccc(Br)c3)n2)c1
  A: 1.1; B: 3405; C: 1; D: 14; E: 5; F: 8; G: -12
> COc1ccc(-n2c(SCC(=O)NCC3CCCO3)nc3c([nH]c4ccccc43)c2=O)cc1 (stereo not given)
  A: 4.1; B: 3524; C: -5; D: -1; E: -1; F: 2; G: -15
> CCOC(=O)C1=NNC2(c3ccc(C)cc3)C(=O)N(c3ccccc3)C(=O)C12 (stereo not given)
  A: 0.0; B: 6430; C: 0; D: -2; E: -9; F: 16; G: .
> COc1ccc(-c2csc(NC(=O)CN3C(=O)NC4(CCCC4)C3=O)n2)c(OC)c1
  A: -0.3; B: 4759; C: -5; D: 8; E: 0; F: 3; G: 5
> Oc1cc(Nc2cccnc2)cc2cccnc12
  A: 17; B: 3965; C: .; D: 8; E: -1; F: 12; G: 4
> CC12CN3CC(C)(CN(C1)C3c1ccc(F)cc1)C2 (stereo not given)
  A: 0.0; B: 4363; C: -1; D: -5; E: -20; F: -5; G: -17
> Cc1ccc(N2C(=O)[C@@H]3Cc4ccccc4CN3C2=O)cc1
  A: -2.3; B: 21075*; C: .; D: -6; E: 10; F: -6; G: -27
> COc1ccc(-c2nc(N)n(C(C)=O)n2)cc1
  A: -14; B: 2829; C: -5; D: 4; E: 5; F: -1; G: -11
> O=C(c1ccc(Cn2cc([N+](=O)[O-])cn2)o1)N1CCCCCC1
  A: 4.8; B: 5738; C: -1; D: 8; E: 0; F: 5; G: -17
> CCOC(=O)c1c2n(c3c(NCc4ccccc4)ncnc13)CCCC2
  A: -4.7; B: 3784; C: 9; D: .; E: .; F: -1; G: 4
> COc1cc(/C=C/C(=O)OCC(=O)Nc2ccc(C)c(S(=O)(=O)N3CCCCC3)c2)ccc1O
  A: 3.8; B: 10303; C: 5; D: 10; E: 7; F: 7; G: -13
> O=c1cc(N2CCCCC2)c(-c2ccccc2)nn1Cc1cccc(F)c1
  A: 0.9; B: 2047; C: -1; D: -2; E: -5; F: -5; G: -9
> CC(=O)Nc1ccc(S(=O)(=O)Nc2nc3ccc([N+](=O)[O-])cc3s2)cc1
  A: 0.2; B: 3869; C: -12; D: 2; E: 5; F: -7; G: -67
> COC(=O)c1ccc(/C=C/c2c(-c3ccsc3)oc3ccc(N4CCOCC4)cc23)cc1
  A: .; B: 3959; C: -10; D: .; E: .; F: .; G: -28
> COc1ccc2[nH]c(O)c(N=O)c2c1
  A: 3.1; B: 2522; C: 4; D: 10; E: 4; F: 2; G: -26
> CN(C)c1ncnc2c1ncn2CCn1cnc2c(N(C)C)ncnc21
  A: -3.6; B: 3762; C: .; D: -2; E: 2; F: -1; G: -7
> O=C1CCCC(O)=C1N=Nc1ccc(S(=O)(=O)N2CCOCC2)cc1
  A: 1.5; B: 4582; C: -3; D: -6; E: 7; F: 2; G: -16
> CCc1ccc(NC(=O)CCc2nnc3ccc(N4CCCC4)nn23)cc1
  A: -0.1; B: 5928; C: -9; D: -5; E: 6; F: 3; G: -17
> O=C(COC(=O)c1ccccc1Sc1ccc(C(F)(F)F)cc1[N+](=O)[O-])NC(=O)NC1CCCC1
  A: -2.8; B: 2618; C: 8; D: 2; E: -2; F: -29; G: -15
> CC(NC(=O)Nc1cccc(F)c1)c1ccc2c(c1)OCO2 (stereo not given)
  A: 1.7; B: 4698; C: 13; D: 13; E: -8; F: 5; G: -12
> Cc1ccc(NC(=O)CCc2c(C)nn(-c3ccc(N4CCOCC4)nn3)c2C)cc1
  A: 5.1; B: 3998; C: 4; D: 7; E: -3; F: 15; G: -22
> O=C(/C=N/NC(=O)c1ccccc1Br)c1ccccc1
  A: .; B: 3440; C: 5; D: .; E: .; F: .; G: -19
> O=C(NC1CCCC1)c1c(O)nc2sccn2c1=O
  A: 8.6; B: 5391; C: -6; D: 7; E: 6; F: 4; G: -25
> NC(=O)c1ccc(-c2ccccc2F)cc1
  A: 8.8; B: 4439; C: 16; D: 2; E: -7; F: 4; G: -30
> CN(C)S(=O)(=O)c1cccc(NC(=S)NN=CC2CC=CCC2)c1 (stereo not given)
  A: 7.1; B: .; C: .; D: 19; E: 4; F: 5; G: .
> COC(=O)C1=C(c2ccccc2)C[C@@H]2CC[C@H]1N2C(=O)NCc1cccc2ccccc12
  A: .; B: 4384; C: -11; D: .; E: .; F: .; G: -14
> CCS(=O)(=O)N1Cc2ccccc2CC1C(=O)Nc1nc(C)cs1 (stereo not given)
  A: 8.9; B: 3604; C: 1; D: 10; E: 6; F: 9; G: -35
> COc1ccc(OCC(=O)OC(C)CN2CCCCC2)cc1 (stereo not given)
  A: 0.1; B: .; C: -3; D: 7; E: -1; F: 4; G: -11
> O=C(CC1C[C@H](C(=O)N2CCOCC2)[C@@]2(CCC3CCCC3)c3[nH]c4ccccc4c3CCN2C1=O)NCCCn1ccnc1 (stereo not given in full)
  A: -7.4; B: 4029; C: .; D: 1; E: 8; F: 11; G: -14
> CCOC(=O)C1CCCN(C(=O)c2cc(S(=O)(=O)N(C)C)ccc2N2CCCC2)C1 (stereo not given)
  A: 1.5; B: ?; C: -6; D: 7; E: 5; F: 2; G: -41
> O=C(NCc1ccccn1)c1ccc2nc(C3CCCCC3)oc2c1
  A: 1.6; B: 4594; C: 2; D: 12; E: 8; F: 5; G: 11
> COc1ccccc1Nc1cc(N2CCOCC2)c2nonc2c1[N+](=O)[O-]
  A: 3.9; B: 1931; C: -6; D: 8; E: 1; F: 6; G: 4
> COc1cc(NS(=O)(=O)c2ccc(NC(=O)COc3cccc(C)c3)cc2)nc(OC)n1
  A: 3.4; B: 5823; C: -4; D: 16; E: 0; F: -10; G: -24
> CCCOc1ccc(C(=O)NNC(=S)NC(=O)CC)cc1
  A: 68; B: 8267; C: 3; D: 3; E: 11; F: 41; G: 14
> Cc1coc(C)c1C(=O)Nc1ccc2ccccc2c1
  A: -1.6; B: 6017; C: -3; D: 3; E: -5; F: -2; G: -61
> COc1ccc(NC(=O)CSc2n[nH]c(CNc3cccc(C)c3)n2)cc1
  A: -9.0; B: 2937; C: 3; D: -1; E: -3; F: -6; G: 9
> COc1ccc(NC(=O)CCCn2c(=S)[nH]c3ccccc3c2=O)cc1
  A: 7.1; B: 5524; C: -17; D: 4; E: -1; F: 15; G: -19
> CC(NC(=O)c1ccco1)C(=O)N1CCN(c2cccc(Cl)c2)CC1 (stereo not given)
  A: 3.4; B: 4765; C: .; D: 5; E: 0; F: 2; G: .
> CS(=O)(=O)N(CC(=O)NC1CC1)C1CCCCC1
  A: -2.1; B: 2220; C: -2; D: 4; E: -3; F: 1; G: -23
> COc1nnc(-c2ccc(C(=O)N3C[C@@H]4C[C@H](C3)c3cccc(=O)n3C4)cc2)c2ccccc12
  A: -3.7; B: 3619; C: 10; D: 17; E: 15; F: 3; G: -2
> CCOC(=O)C1CCCN(c2ccc(NC(=O)c3snc4c(=O)[nH]cnc34)cc2)C1 (stereo not given)
  A: -1.1; B: 5280; C: -5; D: .; E: .; F: -2; G: -8
> CC(C)(C)NC(=O)Cn1nnc(-c2ccc(OCc3c(F)cccc3Cl)cc2)n1
  A: -4.6; B: 4351; C: 0; D: 0; E: 3; F: -9; G: -48
> Cc1ccc(CN2CCN(c3ccccc3)CC2)o1
  A: 7.0; B: 4029; C: -3; D: -5; E: 0; F: 12; G: -14
> CCCCSc1nnc([C@H](CC(C)C)NC(=O)OC(C)(C)C)o1
  A: 3.4; B: 6422; C: 1; D: 12; E: 9; F: 1; G: -22
> CCCCCCn1nc(C(=O)Nc2nc3c(s2)CCCC3)c2ccccc2c1=O
  A: -0.6; B: 2015; C: -16; D: 12; E: -3; F: -17; G: -19
> Cc1cccc2cc(C#N)c(N3CCOCC3)nc12
  A: 3.9; B: 2943; C: -2; D: 3; E: -5; F: -1; G: -9
> CCN1CCN(c2c(/C=C3\SC(=S)N(Cc4ccco4)C3=O)c(C)c(C#N)c(=O)n2C)CC1
  A: 2.1; B: 8265; C: -1; D: 6; E: -3; F: -4; G: -17
> CCCn1c(SCC(=O)Nc2ccccc2CC)nnc1C(C)C
  A: 3.1; B: 2880; C: -6; D: 11; E: 8; F: 8; G: -6
> CCOC(=O)c1c(C)[nH]c(C)c1C(=O)COC(=O)c1ccc(Cl)c(S(=O)(=O)NCc2ccccc2)c1
  A: 5.6; B: 2768; C: 1; D: .; E: .; F: -11; G: -3

(next part)
Short keys: A = RN4220 kill; B = Bead autofluor; C = BJeLR viability; D = Mtb hypoxia rep; E = Mtb hypoxia rep growth; F = Sa ugtP lethal; G = PrP 5UTR inh
> CC(C)Sc1oc(-c2ccco2)nc1S(=O)(=O)c1ccc(F)cc1
  A: 3.2; B: 4358; C: -3; D: 19; E: 6; F: 1; G: -13
> C#CCSc1nc2sc3c(c2c(=O)n1C)CCC3
  A: 7.8; B: 3179; C: -7; D: 3; E: -4; F: -10; G: -12
> CCN(CC)CCNc1nc(C(F)(F)F)nc2c1nnn2Cc1ccccc1
  A: 1.1; B: 3682; C: 22; D: 11; E: 9; F: 6; G: -54
> CCOC(=O)c1sc(/S(C)=N/S(=O)(=O)c2cccc(Cl)c2)c2c1CCC=C2 (stereo not given)
  A: 6.4; B: .; C: .; D: -9; E: 4; F: -1; G: .
> CC1CCN(CCn2c(=S)[nH]c3ccccc3c2=O)CC1
  A: 2.5; B: 3698; C: -7; D: 8; E: 6; F: 0; G: -23
> O=C(O)Cc1ccccc1C(=O)O
  A: 7.9; B: 9135; C: 9; D: 6; E: 6; F: -12; G: -18
> COc1ccc(Cl)cc1S(=O)(=O)N1CCN(C(=O)COc2ccccc2)CC1
  A: 4.8; B: 4215; C: -5; D: .; E: .; F: 3; G: -2
> CCC(Sc1ncccc1C(=O)O)C(=O)N1CCOCC1 (stereo not given)
  A: 2.4; B: 11105; C: 10; D: 8; E: 14; F: 2; G: -15
> CS(=O)(=O)N(CC(=O)O)c1cc(C(F)(F)F)ccc1Cl
  A: 2.0; B: 3803; C: .; D: 10; E: 16; F: -3; G: -5
> CCN(CC)CCN1C(=O)C2C(C(=O)Nc3cc(C)cc(C)c3)C3C=CC2(O3)C1C(=O)NC1CCCCC1 (stereo not given)
  A: 5.2; B: 3389; C: -5; D: 12; E: 3; F: 4; G: -19
> CC1CN(CCc2ccccc2)C(C)C/C1=N/O (stereo not given)
  A: .; B: 5607; C: -4; D: .; E: .; F: .; G: -37
> CC=CC1=CC(=O)CC(c2ccc(OC)c(OC)c2)C1 (stereo not given)
  A: -0.1; B: .; C: .; D: 4; E: 5; F: -4; G: .
> Cc1ccnc(NC(c2ccccn2)c2c(C)[nH]c3ccccc23)c1 (stereo not given)
  A: 2.0; B: 4532; C: -6; D: -1; E: -3; F: 1; G: -18
> COc1ccc(-c2nc(CN3CCCCC3c3cccnc3)c(C)o2)c(F)c1 (stereo not given)
  A: 8.9; B: 7397; C: 5; D: 10; E: 6; F: -2; G: -21
> COc1ccc(/C=N/NC(=O)c2ccccc2[N+](=O)[O-])cc1CN1CCc2cc(OC)c(OC)cc2C1C (stereo not given)
  A: .; B: 4348; C: 6; D: .; E: .; F: .; G: -22
> O=C(OCc1nnc(-c2ccccc2)o1)c1ccc(CO)cc1
  A: 1.6; B: 3270; C: 5; D: -1; E: 2; F: 1; G: -21
> CCOC(=O)c1cccc(Nc2nc(C)cc(C)n2)c1
  A: 0.5; B: 5738; C: .; D: .; E: .; F: -2; G: -24

4 consecutive entries from above, quoted:
Short keys: A = RN4220 kill; B = Bead autofluor; C = BJeLR viability; D = Mtb hypoxia rep; E = Mtb hypoxia rep growth; F = Sa ugtP lethal; G = PrP 5UTR inh
> CC(C)Sc1oc(-c2ccco2)nc1S(=O)(=O)c1ccc(F)cc1
  A: 3.2; B: 4358; C: -3; D: 19; E: 6; F: 1; G: -13
> C#CCSc1nc2sc3c(c2c(=O)n1C)CCC3
  A: 7.8; B: 3179; C: -7; D: 3; E: -4; F: -10; G: -12
> CCN(CC)CCNc1nc(C(F)(F)F)nc2c1nnn2Cc1ccccc1
  A: 1.1; B: 3682; C: 22; D: 11; E: 9; F: 6; G: -54
> CCOC(=O)c1sc(/S(C)=N/S(=O)(=O)c2cccc(Cl)c2)c2c1CCC=C2 (stereo not given)
  A: 6.4; B: .; C: .; D: -9; E: 4; F: -1; G: .
